# 2A StopGo: lowers the luciferase signal of an FMDV 2A StopGo reporter | Potency, µM (doses to about 57.9 µM), for the others: top-dose signal change, negative = less light | human cells with a luciferase reporter of 2A StopGo recoding; control for the full effect not named in the record | hit rate 1.2% among 410,000; active = well fitted falling curve with a large enough effect; inconclusive = small, poorly fitted or top-dose-only effect; inactive = no such curve, though single readings can be large or run the other way; tested in HEK293T cells; also: % is scaled to controls: 0 for no effect and ±100 for the full control effect; nearly all actives have a fitted effect of over 45% in size; luciferase light after 4 h
# Lassa entry inh: Lassa virus entry inhibition; hit rate 1.2% among 300,000; Lassa virus pseudotype entry inhibition, cell reporter; control for the full effect not named in the record; Potency, µM (top dose mostly 37.9 µM), for the others: top-dose activity change, negative = inhibition, most hits filed as inhibitors; active means well fitted inhibition curve with a large enough effect; inconclusive means small, poorly fitted or top-dose-only effect, or effect the other way; inactive means flat fitted curve, though single readings scatter; tested in HEK293 cells; also: % is scaled to controls: 0 for no effect and ±100 for the full control effect; nearly all actives have a fitted effect of over 50% in size; luciferase read-out
# NS1 inh: influenza NS1 inhibition; hit rate 0.4% among 270,000; Potency, µM (highest dose often 46.1 µM), inactives show top-dose activity, positive = more growth; AID 2326; S. cerevisiae slowed by influenza A NS1, growth recovery by OD600; also: actives are rising curves; nearly all actives have a fitted effect of over 50% in size
#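 Recovery from NS1-induced slow growth read by OD600 in budding yeast switched to galactose assay medium (pH 6.0, -URA) at 1:100 dilution. Compound 23 nl per well; the matching strain lacking NS1 serves as control.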
# RE007 growth inh: less growth of the S. pombe RE007 Vpr strain | S. pombe RE007 Vpr strain, BacTiter-Glo ATP luminescence, 24 h; control for the full effect not named in the record | Potency, µM (highest dose often 92.2 µM), for the others: top-dose activity change, negative = less growth | hit rate 0.21% among 360,000 | AID 651644; active = well fitted falling curve with a large enough effect; inconclusive = small, poorly fitted or top-dose-only effect; inactive = no such curve, though single readings can be large or run the other way;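 also: % is scaled to controls: 0 for no effect and ±100 for the full control effect; nearly all actives have a fitted effect of over 50% in size; the assay follows cell death caused by Vpr and the record does not say whether a fall means rescue or toxicity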
#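 Fission yeast RE007 carrying one integrated HIV-1 vpr copy, seeded at OD 0.01 in PMG+AL medium with 23 nL pinned compound. Grown 24 h at 30 degrees; viability read by BacTiter-Glo luminescence after 5 min.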
# SARS PLP yeast: SARS-CoV PLP inhibition in yeast. S. cerevisiae expressing SARS-CoV PLpro, growth rescue; control for the full effect not named in the record. AID 485353. Potency, µM (highest dose often 32.9 µM), inactives show top-dose activity, positive = growth rescue. hit rate 0.19% among 330,000; also: 0% is about no effect; nearly all actives have a fitted effect of over 55% in size; growth read by luminescence after 48 h
# Cruzain inh noDet: inhibitors of Trypanosoma cruzi cruzain without detergent; P25779; purified cruzain, Z-FR-AMC fluorescence, no detergent; Potency, µM, for inactives: max response, negative = inhibition, actives largely listed as inhibitors; hit rate 2.3% among 200,000; active = well fitted curve in the direction sought with a large enough effect; inconclusive = small, poorly fitted or top-dose-only effect, or another doubt; inactive = no such curve, though single readings can be large; an effect the other way counts as inactive or inconclusive;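 also: plate controls were enzyme without inhibitor for no effect and buffer without enzyme for full effect; nearly all actives have a fitted effect of over 40% in size; top concentration of the series not given in the record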
# Target sequence (P25779 123-467 limits assumed): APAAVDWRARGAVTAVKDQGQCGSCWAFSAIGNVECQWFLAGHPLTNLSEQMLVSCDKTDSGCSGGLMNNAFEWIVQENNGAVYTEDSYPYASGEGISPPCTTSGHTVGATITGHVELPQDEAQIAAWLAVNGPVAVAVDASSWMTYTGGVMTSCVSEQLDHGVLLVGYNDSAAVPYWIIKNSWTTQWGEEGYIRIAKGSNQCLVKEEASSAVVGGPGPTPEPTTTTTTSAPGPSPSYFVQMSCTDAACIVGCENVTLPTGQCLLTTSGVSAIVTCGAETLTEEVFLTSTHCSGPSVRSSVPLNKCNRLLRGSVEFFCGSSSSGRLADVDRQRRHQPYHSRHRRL
#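 Detergent-free condition (0.00005% Triton X-100) in acetate buffer pH 5.5 with DTT. 1.5 nM enzyme and compound were pre-mixed 15 min, then 2 uM Z-FR-AMC substrate added; reaction progress from fluorescence change between first and third reads (60 s).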
# Cruzain inh Det: inhibitors of Trypanosoma cruzi cruzain with detergent; P25779; purified cruzain, Z-FR-AMC fluorescence, 0.01% Triton; Potency, µM, for inactives: max response, negative = inhibition, hits mostly inhibitors; hit rate 0.43% among 200,000; AID 1478; active = well fitted curve in the direction sought with a large enough effect; inconclusive = small, poorly fitted or top-dose-only effect, or another doubt; inactive = no such curve, though single readings can be large; an effect the other way counts as inactive or inconclusive;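 also: plate controls were neutral wells for no effect and buffer without enzyme for full effect; nearly all actives have a fitted effect of over 40% in size; top concentration of the series not given in the record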
#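 Purified cruzain (1.5 nM final) was preincubated with compounds for 15 min at room temperature in 100 mM sodium acetate pH 5.5, 5 mM DTT, 0.01% Triton X-100. Reaction started with 2 uM Z-FR-AMC; AMC fluorescence change over 60 s gave activity.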
# Marburg entry inh: inhibitors of Marburg virus binding or cell entry; Marburg virus pseudotyped entry inhibition, cell reporter; control for the full effect not named in the record; about a third of the inactives were read at about 46 µM; Potency, µM (titrated, usually from 37.8 µM), inactives show at the top dose activity change, negative = inhibition, hits mostly inhibitors; hit rate 1.8% among 300,000; AID 540276; active = well fitted inhibition curve with a large enough effect; inconclusive = small, poorly fitted or top-dose-only effect, or effect the other way; inactive = flat fitted curve, though single readings scatter; tested in HEK293 cells; about a fifth of its hits are not listed in these tables; also: % is scaled to controls: 0 for no effect and ±100 for the full control effect; luciferase read-out
# * marks the source's active call; other numbers are inactive results; ? = inconclusive; nt = no result given; & = joins results of further samples; [ ] = remark or other dose. Unless noted, calls follow the shape of the dose curve; as a rule, active means well fitted rising curve with a large enough effect; inconclusive means small, poorly fitted or top-dose-only effect; inactive means no such curve, though single readings can be large or run the other way. Potency is read from the fitted curve at half-maximal effect.
# Below each compound: 2A StopGo, Lassa entry inh, NS1 inh, RE007 growth inh, SARS PLP yeast, Cruzain inh noDet, Cruzain inh Det, Marburg entry inh
COCCNC(=O)c1onc(CSc2ccncc2)c1C(=O)NCCOC
→ -24%, nt, -6%, -21%, 3%, nt, nt, nt
c1ccc(-c2cn(C[C@H]3CC[C@H](Cn4cc(-c5ccccn5)nn4)O3)nn2)nc1
→ -15%, nt, 23%, -4%, 6%, nt, nt, nt
COc1ccc(C)cc1NC(=O)C(=O)NNC(=O)c1ccco1
→ 12%, 5%, -19%, -12%, -9%, -3%, -9.9%, 1%
COc1ccc(C(=O)N2CCN=C2c2ccccc2)cc1OC
→ -2%, 16%, 4%, 0%, 13%, 4%, 9.1%, 28%[46.1 µM]
Cc1ccc(NC(=O)C2C3C=CC4(O3)C2C(=O)N(CCN2CCOCC2)C4C(=O)NC2CCCCC2)cc1C (stereo not given)
→ 22%, 13%[46.1 µM], 2%, -6%, 1%, nt, nt, -23%[46.1 µM]
Cc1ccc(NS(=O)(=O)c2cccc(C(=O)N3CCCCCC3)c2)cc1
→ 40%[activator], -24%, nt, 1%, -2%, nt, nt, ?
Cc1ccccc1C(=O)NC(C(=O)Nc1nc2c(s1)CCCC2)C(C)C (stereo not given)
→ 19%, -17%, ?, -5%, ?, 3%, -7.6%, ?
O=C(N1CCN(c2ccccn2)CC1)C(Cl)(Cl)Cl
→ 3%, 7%, 23%, -5%, 30%, -11%, -4.4%, 3%
Cc1ccccc1OC(=O)c1nc(SCc2ccccc2F)ncc1Cl
→ -1%, 20%[46.1 µM], nt, nt, nt, ?, -3.1%, 6%[46.1 µM]
Nc1c(Cl)ncnc1N/N=C/c1ccncc1
→ 35%[activator], ?, 2%, -15%, -1%, nt, nt, -20%[46.1 µM]
C=CCSc1nc2ccccc2n1Cc1nnc(-c2cccs2)o1
→ -18%, ?, -6%, 26%, -17%, -17%, -1.4%, -14%
COc1cccc(C2=NOC(C(=O)Nc3ccc4c(c3)OCO4)C2)c1OC (stereo not given)
→ 77%[activator], nt, 0%, 5%, 0%, nt, nt, nt
CCCC(=O)Nc1ccc(NC(=O)c2cccc(OC)c2)nc1
→ 59%[activator], -4%, -7%, -9%, -4%, -1%, 5.1%, -1%[46.1 µM]
CN1C(=O)c2ccccc2C(C(=O)NCc2ccco2)C1c1c[nH]c2ccccc12 (stereo not given)
→ -23%, ?, -4%, -25%, nt, -6%, 2.4%, -19%
COC(=O)c1ccc(N2CCCCC2)c(N)c1
→ 7%, 14%[46.1 µM], 1%, -19%, 0%, nt, nt, ?

# (more compounds)
# Below each compound: 2A StopGo, Lassa entry inh, NS1 inh, RE007 growth inh, SARS PLP yeast, Cruzain inh noDet, Cruzain inh Det, Marburg entry inh
O=C(CSc1nnc(-c2ccccc2Br)o1)N1CCOCC1
→ 19%, ?, 1%, -15%, 0%, nt, nt, ?
COc1cccc(CN2CC(C(=O)NCCc3ccc(C)s3)CCC2=O)c1 (stereo not given)
→ -12%, 15%, -3%, -14%, -6%, nt, nt, -2%
Cc1nnc(SCC(=O)NC2CCCC2)n1CCc1ccccc1
→ 11%, 10%, -5%, 24%, 1%, nt, nt, -3%[46.1 µM]
Cc1cc(C)c(C(=O)COC(=O)C2CC3CCCC(C2)C3=O)c(C)c1 (stereo not given)
→ -9%, 5%, nt, -24%, -11%, nt, nt, 21%
CN(C)c1ccc2nsnc2c1[N+](=O)[O-]
→ -20%, 1%[46.1 µM], 5%, 0%, 0%, nt, nt, -2%[46.1 µM]
COc1ccc(NC(=O)Nc2nnc(C(C)C)s2)cc1
→ 13%, ?, -1%, -2%, 6%, -2%, -0.3%, ?
O=C1CN(C(=O)COC(=O)CCS(=O)(=O)c2ccccc2)c2ccccc2N1
→ -16%, -1%, nt, -7%, 2%, nt, nt, 0%
Cc1ccc(S(=O)(=O)N2CCN(CC(=O)NC3CCCc4ccccc43)CC2)c(C)c1 (stereo not given)
→ ?, -9%, -2%, -4%, -21%, 14%, -2.1%, -2%
Cn1c(C(=O)N(Cc2ccccc2)Cc2cccs2)cc2sccc21
→ -8%, 16%[14.3 µM], -41%, -4%, -3%, -9%, 2.4%, ?
CC1=CN2C(=N)/C(=C/c3ccc(C)o3)C(=O)N=C2S1
→ ?, 1.3µM*, -3%, -19%, -37%, -11%, -9.2%, 9%
COc1ccc(C/C(C)=N/NC(=O)c2ccncc2)cc1
→ 2%, 0%, -4%, 2%, 5%, 5%, -3.3%, ?
CCCCOC(=O)Nc1ccc(S(=O)(=O)Nc2nccs2)cc1
→ 52%[activator], 15%, -3%, -9%, 0%, nt, nt, -23%[46.1 µM]
COc1ccc(S(=O)(=O)NCC2CCCN(C(=O)C=C(C)C)C2)cc1 (stereo not given)
→ 4%, -16%[46.1 µM], -1%, 4%, -2%, nt, nt, -9%[46.1 µM]
Nc1c(C(=O)NC2CCCC2)c2nc3ccccc3nc2n1/N=C/c1cccnc1
→ -27%, 6%, ?, -13%, nt, nt, nt, 7%[46.1 µM]
COc1ccc(/C=C(/C#N)c2nc(-c3ccc(-c4ccccc4)cc3)cs2)cc1
→ 6%, 5%[46.1 µM], nt, nt, nt, 4%, 0.8%, nt

# Next compounds follow.
# Below each compound: 2A StopGo, Lassa entry inh, NS1 inh, RE007 growth inh, SARS PLP yeast, Cruzain inh noDet, Cruzain inh Det, Marburg entry inh
CC(C)Cc1ccc(CN2CCCC(NC(=O)c3ccnn3C)C2)cc1 (stereo not given)
→ ?, ?, 0%, -6%, 7%, nt, nt, 10µM*
O=C(CC(C(=O)O)N1CCOCC1)Nc1ccc(Cl)cc1 (stereo not given)
→ -16%, -1%, ?, -13%, 1%, -8%, -6.3%, 5%
C[C@H]1C=C(C(=O)NCc2nc3ccccc3[nH]2)O[C@@H](OCc2ccc(CO)cc2)C1
→ -21%, nt, 0%, -15%, 2%, nt, nt, nt
COC(=O)C(Cc1ccc(N(CCCl)CCCl)cc1)N=Cc1ccccc1O (stereo not given)
→ ?, ?, 25%, -11%, 2%, nt, nt, ?
O=C(CSc1nc(C2CC2)nc2ccccc12)Nc1ccccc1N1CCOCC1
→ 25µM*, nt, 0%, -3%, -3%, nt, nt, nt
CCOC(=O)c1oc2cc(O)cc(C)c2c1C
→ 25%, 9%, nt, -8%, nt, nt, nt, ?
O=C(CSc1nnc(NC(=O)c2c(F)cccc2F)s1)NCc1ccc(F)cc1
→ 9%, -6%, nt, 16%, 0%, nt, nt, -10%
CN(C)c1ccc(/C=N/NC(=O)c2cc(=O)[nH]c3ccccc23)cc1
→ -8%, nt, -7%, 11%, -1%, nt, nt, nt
COc1ccc(/C=N/NC(=O)c2ccc(NC(=O)C3CCCCC3)cc2)cc1O
→ -28%, 3%[46.1 µM], 11%, -8%, -4%, nt, nt, -18%[46.1 µM]
C[n+]1ccccc1Nc1cc([N+](=O)[O-])ccc1N
→ -8%, nt, -4%, -9%, -2%, nt, nt, nt
CCOCCOc1nc2c(c(=O)n(C)c(=O)n2C)n1Cc1ccc(C)cc1
→ ?, nt, -3%, 8%, -10%, 7%, -1.6%, nt
CCOC(=O)C1CCN(c2c(NCc3ccc(C(=O)NC(C)CC)cc3)c(=O)c2=O)CC1 (stereo not given)
→ -12%, 21%, 14%, -4%, -4%, 7%, -6.4%, 25%&2%
CC(=O)Nc1ccc(NCc2nnc3n2CCCCC3)cc1
→ -4%, 1%[46.1 µM], nt, nt, nt, -11%, 2.1%, nt
O=C(COc1ccc2c3c(c(=O)oc2c1)CCC3)NC(Cc1ccc(Cl)cc1)C(=O)O (stereo not given)
→ -13%, nt, 26%, 1%, 7%, nt, nt, nt
O=C(Cn1ncc2c(=O)oc3ccccc3c21)N1CCc2ccccc2C1
→ -12%, nt, -19%, 14%, -2%, -4%, -2.4%, nt

# New compounds follow:
# Below each compound: 2A StopGo, Lassa entry inh, NS1 inh, RE007 growth inh, SARS PLP yeast, Cruzain inh noDet, Cruzain inh Det, Marburg entry inh
CC1(/[N+]([O-])=C/c2ccc(F)cc2)CCCCC1=O (stereo not given)
→ 5%, nt, -1%, 3%, -1%, nt, nt, nt
O=C1Nc2ccccc2C1Cc1ccc(Br)cc1 (stereo not given)
→ -8%, -9%[46.1 µM], nt, nt, nt, 4%, -9.0%, -2%[46.1 µM]
CCN(CC)CCCNC(=O)CSc1nc(C)cc(C)n1
→ -10%, 6%, 2%, 37%, 0%, nt, nt, 4%[46.1 µM]
CN(C)S(=O)(=O)c1ccc(N2CCCC2)c(C(=O)NC2CCC(O)CC2)c1 (stereo not given)
→ 9%, ?, nt, 3%, -1%, nt, nt, -3%
Cc1onc(-c2ccccc2Cl)c1C(=O)Nc1ccc(F)c(F)c1
→ -1%, 12%, -20%, -26%[3.69 µM], 16%, -6%, -2.1%, 15%
COc1ccc(C(C)C)cc1S(=O)(=O)NCCc1c(C)[nH]c2c(Cl)cccc12
→ 65%[activator], -23%[46.1 µM], nt, nt, nt, -9%, -7.8%, ?
NC(=S)NN=C1CCCCCCCC1
→ 20%, -8%, nt, 0%, nt, nt, nt, -1%
NC(=S)NNc1cc(Cl)cc(Cl)c1
→ ?, -1%, -135%, 8.9µM*, -44%, -4%, -5.2%, 1%
ClCCN(CCCl)c1ccc(-n2cnc3c(Cl)ncnc32)cc1
→ ?, ?, nt, 9%, nt, nt, nt, ?
CCc1nc(SCC(=O)Nc2cc(C)on2)c2c(=O)n(C)c(=O)n(C)c2n1
→ -40%, nt, 5%, 7%, -2%, 4%, 1.8%, nt
Cc1ccc(OCc2cc(C(=O)NC(C)Cc3cccnc3)no2)cc1C (stereo not given)
→ 2%, nt, -51%, -12%, -4%, nt, nt, nt

# A few values from the results shown:
# Entry for `Cc1onc(-c2ccccc2Cl)c1C(=O)Nc1ccc(F)c(F)c1` under Marburg entry inh: 15%
# Entry for `NC(=S)NN=C1CCCCCCCC1` under 2A StopGo: 20%
# Entry for `O=C1Nc2ccccc2C1Cc1ccc(Br)cc1` (stereo not given) under Lassa entry inh: -9%[46.1 µM]
